TRPML1 inh: qHTS for Inhibitors of the Human Mucolipin Transient Receptor Potential 1 (TRPML1) | TRPML1-inducible cells, Ca2+ dye fluorescence, FDSS; active compounds read low; inhibition of EC80 agonist-evoked calcium signal | actives 0.02% (n = 390,000) | AID 624415, 2012 | Mucolipin-1 (Homo sapiens), Q9GZU1 | activity change, negative = inhibition, % (no concentration beside the values); in the data active means activity change below about -50%; inconclusive means about -30% to -50%; inactive means above about -30%;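 note: stimulus is agonist 54-4 at its EC80 concentration; % is set by controls: 0 for no effect and ±100 for the full control effect; compound concentration not given in the record; the text of the record puts the active cut at -80%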
Target sequence (Q9GZU1 whole entry, looked up): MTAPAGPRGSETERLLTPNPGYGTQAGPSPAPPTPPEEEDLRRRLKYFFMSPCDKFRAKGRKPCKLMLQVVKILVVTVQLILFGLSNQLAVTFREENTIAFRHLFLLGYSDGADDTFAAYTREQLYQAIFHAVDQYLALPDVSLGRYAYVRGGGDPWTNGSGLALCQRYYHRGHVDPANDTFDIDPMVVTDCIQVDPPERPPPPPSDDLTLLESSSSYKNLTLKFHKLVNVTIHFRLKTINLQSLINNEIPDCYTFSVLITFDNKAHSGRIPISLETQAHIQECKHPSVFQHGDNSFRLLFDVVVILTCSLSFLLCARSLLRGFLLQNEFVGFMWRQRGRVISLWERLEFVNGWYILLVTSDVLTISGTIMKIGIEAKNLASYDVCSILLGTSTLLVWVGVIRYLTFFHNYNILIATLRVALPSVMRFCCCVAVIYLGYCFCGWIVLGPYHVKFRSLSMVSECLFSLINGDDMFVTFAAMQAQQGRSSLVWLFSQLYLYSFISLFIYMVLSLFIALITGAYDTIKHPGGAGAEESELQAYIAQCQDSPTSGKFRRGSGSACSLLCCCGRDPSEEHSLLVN
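Tet-induced TRPML1-DL cells loaded with Ca8 no-wash calcium dye were read kinetically on FDSS. Compound addition was followed by EC80 agonist 54-4 (4 uM final); inhibition was read over 110 s.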
TRPML1 agonist: qHTS for Agonists of the Human Mucolipin Transient Receptor Potential 1 (TRPML1) | TRPML1-expressing cells, Ca2+ dye fluorescence, FDSS; host cell line not named in the record; reference of the full effect not given here | activation, % (test concentration not listed) | actives 0.12% (n = 410,000) | AID 624414, 2012; in the data active = activation above about 50%; inconclusive = about 30% to 50%; inactive = below about 30%; note: 0% is about no effect; the text of the record puts the active cut at 80%
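In this qHTS format, compounds were pin-transferred onto Ca8-dye-loaded TRPML1-DL cells induced with Tet overnight, and intracellular Ca2+ fluorescence was recorded kinetically for 110 s after a 10 s baseline. A subsequent 4uM final 54-4 (EC80) addition followed by a second 110 s read served as the antagonist phase.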
Numbers without * were called inactive. Only part of the results is shown; rates above refer to the full screens.

Each structure is followed by: TRPML1 inh	TRPML1 agonist
CCc1ccccc1NC(=O)CSc1nnc(COc2ccccc2Cl)o1
  4.6	-1.1
Cc1c(C)n(Cc2ccc(F)cc2)c2ccc(C(=O)N3CCN(c4ccc(Cl)cc4)CC3)cc12
  8.0	0.2
CCOC(=O)c1cc(-c2ccc(F)cc2)n(CCC(=O)NC2CCCCC2)c1C
  19.1	2.6
O=C(NC1CC(=O)N(c2ccc(F)cc2)C1)C1CCCC1 (stereo not given)
  0.7	0.2
CCOC(=O)N1CCN(Cc2nc3cc(NC(=O)CC)ccc3n2C(C)C)CC1
  -16.3	0.7
CCOc1ccc(S(=O)(=O)NCCc2sc(-c3ccc(C)cc3)nc2C)cc1
  2.7	-0.5
CC(=O)N1CCc2cc(CNS(=O)(=O)c3ccc(Cl)s3)ccc21
  -3.8	0.4
CCN(Cc1ccccc1)C(=O)C1CCC(CNS(=O)(=O)c2ccc3c(c2)CCCC(=O)N3)CC1 (stereo not given)
  -19.8	-0.5
O=C(COc1ccccc1Cl)Nc1ccc(OCc2cc(=O)n3ccsc3n2)cc1
  -1.2	-0.4
CCCC[C@H]1CCCO[C@@](C(=O)NCc2ccccn2)(C(F)(F)F)C1
  -3.7	1.2
COc1ccc(CCNC(=O)Cn2cc(S(=O)(=O)Cc3ccc(F)cc3)c3ccccc32)cc1OC
  -16.7	0.2
Cc1ccc(C)c(N2CCN(C(=O)C3CCN(C(=O)c4cc5sccc5n4C)CC3)CC2)c1
  4.6	1.0
CCCCSCCCNC(=O)c1cc(-c2cccnc2)nc2ccc(S(=O)(=O)N3CCC(C)CC3)cc12
  3.5	1.5
Cc1ccccc1C(=O)n1nc(-c2cccnc2)nc1NCc1ccc(F)cc1
  2.7	0.6
Cc1ccc(Cl)c2sc(N3CCN(C(=O)C4CC4)CC3)nc12
  8.2	1.9
CCC1CN(C(=O)N2CCC(C(=O)NCCc3cc(OC)ccc3OC)CC2)c2ccccc2O1 (stereo not given)
  8.2	1.7
Cc1ccc(C)c(S(=O)(=O)c2nnn3c2nc(N2CCCC2)c2sccc23)c1
  -19.3	0.5
CCCCSCCCNC(=O)CN1C(=O)c2cccnc2Oc2ccc(Cl)cc21
  -2.2	2.7
CCCC/C=C/[C@H](c1ccccc1)[C@H](CO)Cc1cnc2ccccc2c1
  4.0	3.1
CCN1CCN(Cc2c(O)ccc3cc(-c4ccc(OC)cc4)c(=O)oc23)CC1
  -3.3	1.9
COc1ccc(CNC(=O)Cn2c(-c3ccccc3)cc(C(C)=O)c2C)cc1OC
  14.2	-0.3
Cc1ccc(Cl)cc1NC(=O)CCn1cnc2ccccc2c1=O
  7.1	-0.5
N#C/C(=C\c1ccccc1F)c1nc2ccccc2c(=O)[nH]1
  14.2	6.9
Cc1ccc(C)c(OCCn2cc(C(=O)c3cccs3)c3ccccc32)c1
  69.8	2.6
Cc1cc(C)cc(C(=O)NCCc2sc(-c3ccc(F)cc3)nc2C)c1
  46.3	1.0
CCc1ccc(CNC(=O)c2cc(-c3ccc(Br)s3)nc3ccccc23)cc1
  12.7	-0.3
CCOC(=O)Cc1c(C)nc2c(-c3ccc(Cl)cc3)c(C(F)(F)F)nn2c1C
  43.6	2.3
Cc1cc(C)c(-c2n[nH]c3c2C(c2ccccc2F)N(Cc2ccco2)C3=O)c(O)c1 (stereo not given)
  13.3	2.5
COc1ccc(-c2oc3ncn4nc(-c5cccc(C)c5)nc4c3c2-c2ccc(OC)cc2)cc1
  -1.4	-0.3
CCOc1ccc(N(CC)C(=O)c2noc3c2COc2ccc(C)cc2-3)cc1
  5.9	2.4
Cc1ccc(CNC(=O)C(CC(C)C)N2Cc3ccccc3C2=O)cc1 (stereo not given)
  -3.5	1.3
COc1ccccc1CNC(=O)c1ccc2c(c1)nc(C)n2-c1ccccc1OC
  1.2	0.7
COc1cccc(C(=O)Oc2c(Sc3ccc(C)cc3)c(C)nn2C(C)(C)C)c1OC
  -7.2	0.8
COc1ccccc1-c1nn2c(=O)cc(CN3CCN(C(=O)/C=C/c4ccccc4)CC3)nc2s1
  5.6	-0.1
CSc1ccc(-c2nc3ncccn3c2Nc2ccc(C)c(C)c2)cc1
  50.2	1.5
Cc1ccc(-n2ncc3c(Nc4ccc(Oc5ccccc5)cc4)ncnc32)cc1
  4.8	0.9
CCSc1ccccc1C(=O)N1CCN(c2nc3ccccc3s2)CC1
  9.8	-0.2
CCOC(=O)c1ccccc1NC(=O)CN1CCCN(Cc2cc(C)ccc2C)S1(=O)=O
  -6.8	1.5
NC(=O)C1CCN(S(=O)(=O)c2cc3c(cc2Cl)NC(=O)CO3)CC1
  -16.0	0.6
COC(=O)c1c(NC(=O)c2ccc(S(=O)(=O)N3CCCC(C)C3)cc2)sc2c1CCN(C(C)C)C2 (stereo not given)
  13.8	0.0
CC(C)Oc1ccc(C(=O)N2CC(=O)Nc3ccc(F)cc3C2c2ccc(F)cc2)cc1 (stereo not given)
  3.5	0.6
Cc1cc(C)cc(NC(=O)CCS(=O)(=O)c2ccc3c(c2)oc(=O)n3C)c1
  -13.7	-0.7
CCC(CC)C(=O)Nc1nnc(SCc2cc(=O)c3ccccc3[nH]2)s1
  5.3	1.4
CSc1cccc(NS(=O)(=O)c2ccc3[nH]cc(C(=O)N4CCCCCC4)c(=O)c3c2)c1
  -5.4	2.1
CCOc1ccc(N(C(C)C(=O)NCCSc2ccc(Cl)cc2)S(C)(=O)=O)cc1 (stereo not given)
  -11.0	3.4
O=S(=O)(c1ccc2[nH]c3c(c2c1)CCCCC3)N1CCN(c2cccc(Cl)c2)CC1
  -12.2	-0.1
COc1cc(CNC(=O)c2cc3n(n2)CCCN(Cc2cccc(F)c2)C3=O)cc(OC)c1OC
  -9.7	-0.7
CC(=O)c1cccc(NC(=O)c2cc(-c3ccc4c(c3)OCCO4)on2)c1
  -6.8	-1.0
CCc1cccc(NC(=O)CCS(=O)(=O)c2ccc3nc(C)sc3c2)c1
  -26.1	0.6
CCNC(=O)CC1C(=O)N(c2cccc(OC)c2)C(=O)N1Cc1ccc(OC)c(OC)c1 (stereo not given)
  -12.4	-0.3
CCOc1ccc(-n2c(SCC(=O)N3CCCc4ccccc43)nc3c([nH]c4ccccc43)c2=O)cc1
  36.6	1.1
COc1ccc(N2C(=O)CSC23C(=O)N(CC(=O)NC2CCCCC2)c2ccccc23)cc1 (stereo not given)
  -6.9	1.6
O=C(Cn1c(=O)n(Cc2ccc(C(=O)NCc3ccccc3Cl)cc2)c(=O)c2ccccc21)Nc1ccc(F)c(Cl)c1
  -6.4	0.1
COc1cccc(/C=C/c2nc(C#N)c(N3CCN(C)CC3)o2)c1
  53.7	-1.2
CCc1cccc(C)c1NC(=O)CCn1nc(C)c2c(C)n(-c3ccccc3)nc2c1=O
  11.2	-0.8
Cc1coc2c(C)c3oc(=O)c(CC(=O)NCCc4ccc(Cl)cc4)c(C)c3cc12
  19.4	-0.9
Cc1cc(C)c(S(=O)(=O)Nc2ccc(-c3ccc(N4CCC(C)CC4)nn3)cc2)cc1C
  -5.3	-0.4
COc1ccc2cc(C(=O)NCc3ccc4c(c3)CCN4C(=O)c3ccccc3)[nH]c2c1
  1.5	0.0
CCN(CC)C(=O)Cn1c(=O)n(CCCCCC(=O)NCc2ccc(C)cc2)c(=O)c2sccc21
  14.9	1.6
Cc1cccc(C(=O)Nc2cc3c(cc2N2CCOCC2)n(C)c(=O)n3C)c1
  5.9	0.1

Further compounds:
Each structure is followed by: TRPML1 inh	TRPML1 agonist
COc1cc(CN(C(=O)COc2ccc(Br)cc2)c2ccccn2)cc(OC)c1OC
  -0.2	-0.9
O=C(OCC1CCCO1)c1ccc2c(c1)N(Cc1cccc(Cl)c1)C(=O)c1ccccc1S2(=O)=O (stereo not given)
  9.1	3.9
Cc1ccc(N2CC(C(=O)Nc3ccc(Cl)cc3Cl)CC2=O)cc1 (stereo not given)
  -3.8	-0.2
CN(CC(=O)Nc1ccccc1Cl)S(=O)(=O)c1ccc(C(=O)N2CCOCC2)s1
  -10.5	-0.6
Cc1ccc(NC(=O)CN2C=NS(=O)(=O)c3ccccc32)cc1
  -11.4	-0.7
O=C(CC1Oc2ccccc2NC1=O)NCc1ccc(F)cc1 (stereo not given)
  15.1	-0.6
COc1ccc(N2CCN(C(=O)Cc3coc4ccc(C)cc34)CC2)cc1
  -8.5	2.5
Cc1ccc(S(=O)(=O)c2cn(Cc3ccccc3)c3cc(N4CCCC4)c(F)cc3c2=O)cc1
  -11.9	1.0
CCc1nc2ccc(C(=O)NCc3ccc(N(C)C)cc3)cc2nc1CC
  -16.4	1.4
Cc1ccc(-c2cc(C(F)(F)F)c(C#N)c(SCC(=O)Nc3ccccc3)n2)cc1
  3.2	7.0
COc1cccc2cc(-c3cn4c(n3)sc3cc(F)ccc34)c(=O)oc12
  -9.1	0.7
COc1ccc(NC(=O)Cn2nc(-c3ccccc3)c3cnc4ccc(C)cc4c32)cc1
  3.2	1.5
Cc1cccc(NC(=O)N2CCN3CCCCC3C2)c1C (stereo not given)
  -1.0	1.2
Cc1ccc2oc(=O)c3cc(C(=O)NCCCOC(C)C)sc3c2c1
  -10.5	-0.9
CC1CCCN(Cc2c(O)ccc3c(=O)c(-c4ccccc4Cl)c(C(F)(F)F)oc23)C1 (stereo not given)
  22.3	2.3
Cc1csc2nc(COC(=O)c3ccccc3NC(=O)COc3ccccc3F)cc(=O)n12
  24.6	2.6
COc1ccc(N(Cc2nnc3n2CCCCC3)C(=O)Nc2ccc(Cl)cc2)cc1Cl
  5.4	1.2
COc1ccc(CCNC(=O)Cn2c(C)c3cnn(-c4ccccc4)c(=O)c3c2C)cc1OC
  38.0	-0.8
O=C1CC(c2nnc(Cc3ccccc3Cl)o2)CN1c1ccccc1 (stereo not given)
  -8.0	1.1
Cc1cc(NC(=O)CSc2nc(-c3ccccc3F)nc3c2c(=O)n(C)c(=O)n3C)no1
  1.1	-0.5
Cc1cccc(NC(=O)CCc2c(C)nc3nc(CNC(=O)c4cccc(F)c4)nn3c2C)c1
  -2.6	1.2
CCS(=O)(=O)c1ncc(N(Cc2ccccc2)Cc2ccco2)c(C(=O)Nc2ccccc2C)n1
  -14.8	3.8
O=S(=O)(NCc1ccccc1Cl)c1ccc(-c2cnc(C3CC3)o2)cc1
  1.0	-0.2
COC(=O)c1sccc1S(=O)(=O)N1CCN(c2cc(Cl)ccc2C)CC1
  -15.2	0.2
Cc1ccc(-n2cnnn2)cc1S(N)(=O)=O
  7.1	-0.5
O=C(NCC(c1cccs1)S(=O)(=O)c1cccs1)c1cccc(F)c1 (stereo not given)
  -8.3	-1.1
COc1ccc(NC(=O)C(C)N(c2ccccc2)S(C)(=O)=O)cc1 (stereo not given)
  6.7	-0.7
O=C(COc1ccccc1)Nc1ccc(C(=O)OCc2cc(=O)n3nc(C4CC4)sc3n2)cc1
  -1.9	-0.4
CCOc1ccc(CNC(=O)C2CCN(c3nc4ccccc4nc3C(F)(F)F)CC2)cc1OC
  11.2	-1.1
CCc1cc2c(cc3c(=O)n(CC(=O)NCCc4ccc(OC)cc4OC)nc(CC)n32)s1
  -21.6	1.1

Next part; the last four above are carried over.
Each structure is followed by: TRPML1 inh	TRPML1 agonist
COc1ccc(NC(=O)C(C)N(c2ccccc2)S(C)(=O)=O)cc1 (stereo not given)
  6.7	-0.7
O=C(COc1ccccc1)Nc1ccc(C(=O)OCc2cc(=O)n3nc(C4CC4)sc3n2)cc1
  -1.9	-0.4
CCOc1ccc(CNC(=O)C2CCN(c3nc4ccccc4nc3C(F)(F)F)CC2)cc1OC
  11.2	-1.1
CCc1cc2c(cc3c(=O)n(CC(=O)NCCc4ccc(OC)cc4OC)nc(CC)n32)s1
  -21.6	1.1
CCOC(=O)c1c(C)[nH]c(C)c1S(=O)(=O)NCC(=O)NCc1ccccc1C
  19.2	0.4
Cc1cccc(OC(=O)c2snnc2C)c1
  -1.4	-0.5
CCc1c(C)sc2c1CCN(C(=O)Nc1ccccc1Cl)C2c1ccc(OC)cc1 (stereo not given)
  19.9	-0.4
CCN(CC)C(=O)c1sc2c(c1C)c(=O)n(-c1ccc(OC)cc1OC)c(=O)n2CC(=O)c1ccc(Cl)cc1
  2.0	0.3
COC(=O)c1cc2oc3ccccc3c2n1Cc1c(F)cccc1Cl
  -20.6	-0.4
CCOC(=O)c1c(S(=O)(=O)N2CCCC(C(=O)Nc3cccc(Cl)c3)C2)c(C)n(C)c1C (stereo not given)
  -16.4	0.2
Cc1nc2c(c(SCC(=O)Nc3ccccc3C(F)(F)F)n1)CCC2
  12.0	1.2
Cc1ccc(CN2COc3ccc4c(-c5ccccc5)cc(=O)oc4c3C2)cc1
  -5.7	0.6
CCS(=O)(=O)c1c(S(=O)(=O)CC)c2cc(C(C)(C)C)ccn2c1C(=O)c1ccc(F)cc1
  6.2	1.7
CCC(C)NC(=O)c1nn(-c2ccc(C)cc2)nc1CO (stereo not given)
  3.8	1.2
CC(C)Oc1ccc(CNC(=O)c2ccc(CN3CC(=O)N4CCCCC4C3=O)cc2)cc1 (stereo not given)
  14.4	1.4
